StopGo reporter – lowers the luciferase signal of an FMDV 2A StopGo reporter; AID 1159524; 1.2% of 410,000 active; human cells with a luciferase reporter of 2A StopGo recoding; control for the full effect not named in the record; Potency, µM (series often up to 57.9 µM), for inactives: at the top dose signal change, negative = less light; active = well fitted falling curve with a large enough effect; inconclusive = small, poorly fitted or top-dose-only effect; inactive = no such curve, though single readings can be large or run the other way; tested in HEK293T cells; also: % is scaled to controls: 0 for no effect and ±100 for the full control effect; nearly all actives have a fitted effect of over 45% in size; luciferase light after 4 h
Cruzain inh noDet – inhibitors of Trypanosoma cruzi cruzain without detergent; AID 1476; purified cruzain, Z-FR-AMC fluorescence, no detergent; 2.3% of 200,000 active; Potency, µM, inactives show max response, negative = inhibition, hits mostly inhibitors; P25779;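 also: plate controls were enzyme without inhibitor for no effect and buffer without enzyme for full effect; nearly all actives have a fitted effect of over 40% in size; top concentration of the series not given in the record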
Target sequence (P25779 123-467 limits assumed): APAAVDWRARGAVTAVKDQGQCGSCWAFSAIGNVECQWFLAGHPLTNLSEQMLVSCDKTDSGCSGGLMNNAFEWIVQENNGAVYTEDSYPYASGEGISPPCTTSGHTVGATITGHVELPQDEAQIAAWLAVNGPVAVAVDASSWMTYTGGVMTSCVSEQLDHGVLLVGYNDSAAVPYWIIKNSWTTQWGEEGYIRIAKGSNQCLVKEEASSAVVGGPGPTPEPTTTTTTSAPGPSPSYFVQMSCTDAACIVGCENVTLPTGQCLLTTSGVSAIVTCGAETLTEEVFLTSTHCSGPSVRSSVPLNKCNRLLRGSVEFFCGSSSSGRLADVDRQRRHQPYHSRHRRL
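Purified cruzain at 1.5 nM, pre-incubated 15 min with compound at room temperature in 100 mM sodium acetate pH 5.5, 5 mM DTT, 0.00005% Triton X-100. Reaction started with 2 uM Z-FR-AMC; AMC fluorescence increase over 60 s gives rate.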
Lassa entry inh – inhibitors of Lassa virus binding or cell entry | Lassa virus pseudotype entry inhibition, cell reporter; control for the full effect not named in the record | Potency, µM (titrated, usually from 37.9 µM), without a hit: top-dose activity change, negative = inhibition, usual class: inhibitors | 1.2% of 300,000 active | AID 540256; active means well fitted inhibition curve with a large enough effect; inconclusive means small, poorly fitted or top-dose-only effect, or effect the other way; inactive means flat fitted curve, though single readings scatter; tested in HEK293 cells; also: % is scaled to controls: 0 for no effect and ±100 for the full control effect; nearly all actives have a fitted effect of over 50% in size; luciferase read-out
SARS PLP yeast – SARS-CoV PLP inhibition in yeast; S. cerevisiae expressing SARS-CoV PLpro, growth rescue; control for the full effect not named in the record; Potency, µM (titrated, usually from 32.9 µM), for inactives: at the highest dose activity, positive = growth rescue; 0.19% of 330,000 active; AID 485353; active means well fitted rising curve with a large enough effect; inconclusive means small, poorly fitted or top-dose-only effect; inactive means no such curve, though single readings can be large or run the other way; also: 0% is about no effect; nearly all actives have a fitted effect of over 55% in size; growth read by luminescence after 48 h
MARV entry inh – inhibitors of Marburg virus binding or cell entry | Potency, µM (doses to about 37.8 µM), for inactives: at the highest dose activity change, negative = inhibition, hits mostly inhibitors | 1.8% of 300,000 active | Marburg virus pseudotyped entry inhibition, cell reporter; control for the full effect not named in the record; about a third of the inactives were read at about 46 µM; active = well fitted inhibition curve with a large enough effect; inconclusive = small, poorly fitted or top-dose-only effect, or effect the other way; inactive = flat fitted curve, though single readings scatter; tested in HEK293 cells; about a fifth of its hits are not listed in these tables; also: % is scaled to controls: 0 for no effect and ±100 for the full control effect; luciferase read-out
RE007 growth inh – less growth of the S. pombe RE007 Vpr strain | S. pombe RE007 Vpr strain, BacTiter-Glo ATP luminescence, 24 h; control for the full effect not named in the record | 0.21% of 360,000 active | Potency, µM (highest dose often 92.2 µM), without a hit: at the highest dose activity change, negative = less growth; active = well fitted falling curve with a large enough effect; inconclusive = small, poorly fitted or top-dose-only effect; inactive = no such curve, though single readings can be large or run the other way;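 also: % is scaled to controls: 0 for no effect and ±100 for the full control effect; nearly all actives have a fitted effect of over 50% in size; the assay follows cell death caused by Vpr and the record does not say whether a fall means rescue or toxicity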
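Fission yeast strain RE007, carrying one chromosomally integrated HIV-1 vpr copy, was seeded at OD 0.01 in PMG+AL medium with 23 nL pinned compound. After 24 h at 30 °C and 99% humidity, viability was read by BacTiter-Glo luminescence.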
NS1 function inh – blocks influenza NS1 protein function; S. cerevisiae slowed by influenza A NS1, growth recovery by OD600; Potency, µM (titrated, usually from 46.1 µM), for inactives: at the highest dose activity, positive = more growth; 0.4% of 270,000 active; AID 2326; active means well fitted rising curve with a large enough effect; inconclusive means small, poorly fitted or top-dose-only effect; inactive means no such curve, though single readings can be large or run the other way; also: nearly all actives have a fitted effect of over 50% in size
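S. cerevisiae expressing influenza A NS1, grown in glucose, washed, then diluted 1:100 into pH 6.0 -URA galactose medium with 23 nl compound. Growth recovery read as OD600; NS1-free strain serves as control.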
Cruzain Triton – inhibitors of Trypanosoma cruzi cruzain with detergent; P25779; purified cruzain, Z-FR-AMC fluorescence, 0.01% Triton; Potency, µM, for the others: max response, negative = inhibition, usual class: inhibitors; 0.43% of 200,000 active; AID 1478;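 also: plate controls were neutral wells for no effect and buffer without enzyme for full effect; nearly all actives have a fitted effect of over 40% in size; top concentration of the series not given in the record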
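Cysteine protease activity tested under reducing, mildly acidic conditions (100 mM sodium acetate pH 5.5, 5 mM DTT) plus 0.01% Triton X-100. Cruzain 1.5 nM; substrate Z-FR-AMC 2 uM; 15 min compound preincubation at room temperature.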
An asterisk follows results filed as active; u = inconclusive; x = not tested or not shown; & = joins results of further samples; [ ] = dose if it differs, or a comment. Unless noted, calls follow the shape of the dose curve; as a rule, active = well fitted curve in the direction sought with a large enough effect; inconclusive = small, poorly fitted or top-dose-only effect, or another doubt; inactive = no such curve, though single readings can be large; an effect the other way counts as inactive or inconclusive. Potency is read from the fitted curve at half-maximal effect.

molecule	StopGo reporter	Cruzain inh noDet	Lassa entry inh	SARS PLP yeast	MARV entry inh	RE007 growth inh	NS1 function inh	Cruzain Triton
CCn1c(SCC(=O)c2ccc(OC)cc2)nnc1C1CC1	35%[activator]	-10%	6%	0%	21%	-1%	-7%	-1.4%
Cc1cc2ccccc2n1CCC(=O)O	3%	x	3%	0%	u	-9%	4%	x
CCn1c(CSc2nc(C)cc(C)n2)nnc1SCC(=O)N1CCCc2ccccc21	-6%	2%	-5%	7%	-9%	-7%	-7%	-7.8%
COc1ccc(S(=O)(=O)NCC(c2cccs2)N2CCc3ccccc3C2)cc1 (stereo not given)	31%[activator]	x	2%	-13%	-19%	0%	x	x
Cc1nnc(SCC(=O)Nc2cc(C(C)(C)C)nn2-c2ccccc2)s1	-20%	0%	1%	13%	-33%	-18%	-7%	2.9%
COc1ccc(NC(=O)CCNC(=O)Cn2ccc3ccccc3c2=O)c(OC)c1	-15%	-6%	-1%	29%	0%&16%	-13%	-6%	-2.4%
CC(C)(C)c1ccc(-c2noc(CCC(=O)Nc3cccnc3)n2)cc1	-23%	x	x	-1%	u	-8%	3%	x
Cn1c(=O)c2c(nc(-c3ccccc3)n2C)n(Cc2ccccc2)c1=O	-20%	20%	u	6%	-4%	-7%	2%	-2.0%
CCN(CC(=O)NCc1ccc(Cl)cc1)C(=O)CN1C(=O)NC(C)(c2ccccc2)C1=O (stereo not given)	-13%	x	u	-3%	u	-19%	3%	x
CCOC(=O)c1sc(C)c2c(=O)n(CCCN3CCOCC3)cnc12	-22%	-15%	10%	-1%	2%	4%	4%	0.8%
CN(CCOc1ccc(Cl)cc1)C(=O)C1CCN(C(=O)c2ccc(Cl)cc2)CC1	u	x	-21%	-8%	u	2%	-20%	x
NC(=O)CSc1nnc(SCc2ccc(F)cc2)s1	26%	x	-16%	0%	14%[46.1 µM]	2%	0%	x
CCN(CC)S(=O)(=O)c1ccc2c(c1)nc(CCC(=O)O)n2C	-3%	x	x	1%	x	7%	0%	x
CC(C)CNc1cc(NC2CCCCC2)c2c3c(onc13)-c1ccccc1C2=O	-16%	-27%	9%[46.1 µM]	x	u	x	x	-1.1%
Cc1cc(NC(=O)COC(=O)c2oc3c(ccc4ccccc43)c2C)no1	-13%	20µM*	u	-1%	u	x	-1%	0.6%
COc1ccc(C)cc1N(C)C(=O)c1sc2nc3n(c(=O)c2c1C)CCCCC3	-8%	13%	4%[46.1 µM]	x	x	x	x	-4.9%
CCc1ccc(C2CC(=O)Nc3cc4c(cc32)OCO4)cc1 (stereo not given)	-26%	4%	-26%[46.1 µM]	x	7%[46.1 µM]	x	x	-4.7%
COc1ccc(NC(=S)NCCN2CCC(C)CC2)cc1	-4%	x	x	0%	x	10%	2%	x
CCn1cc2nc(SCc3ccccc3Cl)n(Cc3ccc(OC)cc3)c(=O)c2n1	-1%	-22%	u	x	x	x	x	2.1%
CCOC(=O)C1CCCN(C(=S)NC(=O)/C=C/c2ccc(F)cc2)C1 (stereo not given)	34%[activator]	x	x	6%	x	8%	10%	x

Entries shown so far that contain a COOH group (2):
molecule	StopGo reporter	Cruzain inh noDet	Lassa entry inh	SARS PLP yeast	MARV entry inh	RE007 growth inh	NS1 function inh	Cruzain Triton
Cc1cc2ccccc2n1CCC(=O)O	3%	x	3%	0%	u	-9%	4%	x
CCN(CC)S(=O)(=O)c1ccc2c(c1)nc(CCC(=O)O)n2C	-3%	x	x	1%	x	7%	0%	x

Next section.
molecule	StopGo reporter	Cruzain inh noDet	Lassa entry inh	SARS PLP yeast	MARV entry inh	RE007 growth inh	NS1 function inh	Cruzain Triton
CCN(CC)CCN(C(=O)c1ccc(S(=O)(=O)N2CCOCC2)cc1)c1nc2cc3c(cc2s1)OCCO3	6%	x	2%	1%	-2%	-12%	5%	x
Cc1ccccc1-n1c(C)cc(/C=N/NC(=O)c2ccc(CN3CCOCC3)cc2)c1C	-1%	-6%	u	8%	-26%	-2%	-4%	1.0%
CCOc1ccc(OCc2ccc(C(=O)N3N=C(C(F)F)CC3(O)C(F)F)o2)cc1 (stereo not given)	-31%	-5%	-1%	4%	-7%	6%	2%	-7.4%
CCN(C(=O)c1cn(-c2cccc(OC)c2)c(=O)c2ccccc12)c1ccccc1C	-5%	17%	-8%[46.1 µM]	x	x	x	x	-1.0%
O=C(CNC(=O)OCc1ccccc1)NC1(C(=O)O)CCCC1	-2%	x	7%	x	u	0%	x	x
O=C(CS(=O)(=O)c1ccccc1)Nc1nc2ccccc2s1	-1%	x	x	0%	x	-7%	7%	x
CN1C(=O)C(Cc2ccccc2)C(=O)N(C)C1=O	-8%	x	7%[46.1 µM]	x	14%	3%	x	x
O=C(CCC(=O)OCc1ccc([N+](=O)[O-])cc1Cl)Nc1ccccc1	0%	x	-3%	u	-4%	-18%	7%	x
CCOc1ccc(N2C(=O)CN=C2Nc2ccccc2F)cc1	-16%	-2%	-7%	5%	25%	5%	-3%	4.1%
O=C(Nc1cccc(C(F)(F)F)c1)c1cc(Br)cc2c1OCC2	-20%	x	9%	0%	0%[14.2 µM]	5%	2%	x
CCOC(=O)C1CCCN(C(=O)c2nn(-c3ccc(OC)cc3)c(=O)c3c2c2ccccc2n3C)C1 (stereo not given)	-16%	29%	-1%[46.1 µM]	x	2%[46.1 µM]	x	x	-8.7%
CC(=O)c1ccc(S(=O)(=O)N2CCNCC2)cc1	-9%	x	x	0%	x	4%	0%	x
N#Cc1c(N)n(-c2ccccc2)c(=O)c2cc([N+](=O)[O-])ccc12	-15%	x	-1%	0%	15%[14.2 µM]	5%	1%	x
CC(C)=CCOc1c2occc2cc2ccc(=O)oc12	8%&6%	-6%&-3%	14%&-2%	-8%	14%&-13%&14%&14%&14%&-13%	2%	-21%	-0.3%&-5.1%
CCN1CCN(S(=O)(=O)c2ccc(-c3cc(C)no3)s2)CC1	4%	x	-1%[46.1 µM]	-2%	-2%[46.1 µM]	8%	-7%	x
CCN1/C(=C/C=C/C=C/C=C/c2sc3ccccc3[n+]2CC)Sc2ccccc21	10µM*	x	x	-4%	x	1%	20%	x
Cc1ccc(Oc2nnc(-c3cccs3)c3ccccc23)cc1C	u	-8%	-16%	-36%	u	-8%	-3%	-4.0%
CCc1c(C)sc(NC(=S)Nc2cccnc2)c1C(=O)OC	-11%	x	u	0%	1%[46.1 µM]	-3%	5%	x
Cn1nnc(C(O)CNCc2cccs2)n1 (stereo not given)	-14%	3%	u	-8%	16%	11%	-2%	2.8%
Cc1cccc(NC(=O)CNC(=O)c2ccccc2Cl)n1	20%	x	x	-2%	x	1%	3%	x
O=S(=O)(c1ccccc1)c1nc(-c2ccc(F)cc2)oc1NCc1ccccc1	2%	u	1%[46.1 µM]	x	u	x	x	-12%
O=C(NNC1=NS(=O)(=O)c2ccccc21)C1CC(=O)N(c2ccccc2)C1 (stereo not given)	-7%	x	8%	0%	-6%	-2%	x	x
CC(=O)NC(=S)Nc1ccc(S(=O)(=O)Nc2nc(C)cc(C)n2)cc1	144%[activator]	x	-2%	-1%	u	11%	3%	x
Cc1ccc(S(=O)(=O)N2CCCCC2)cc1NC(=O)C1CC(=O)N(c2ccc3c(c2)OCCO3)C1 (stereo not given)	-17%	x	u	-1%	-27%	0%	x	x
O=C(NCc1ccccc1)C(=O)NCC(c1cccs1)S(=O)(=O)c1cccs1 (stereo not given)	-15%	-12%	u	x	x	x	x	-2.3%
Cc1ccc(C(=O)O/N=C2\CCCc3ccccc32)cc1	19%	-14%	22%	-3%	1%	-10%[3.69 µM]	-7%	-2.7%
NC(=O)[C@@H]1CCNc2c(I)cc([N+](=O)[O-])cc2C(=O)N[C@@H](CCC(=O)O)C(=O)N[C@@H](CO)C(=O)N1	0%	-3%	7%	14%	-8%	-1%	-12%	-6.7%
O=C(NNC(=O)c1sc2cccc(Cl)c2c1Cl)Nc1ccccc1	-16%	10µM*	-4%	-2%	0%	6%	7%	2.1%
Cn1c(=O)[nH]c(=O)c2c1nc(Br)n2CC(O)COc1ccc(Cl)cc1 (stereo not given)	u	x	u	-1%	u	4%	0%	x
Cc1cc(NS(=O)(=O)N(C)C)ccc1C(C)C	10%	-1%	-2%	-20%	2%&2%	28%	-27%	-4.9%
CCOC(=O)c1nc2ccccc2c(=O)n1-c1ccc(C)cc1C	u	-4%	14%	-1%	-5%	4%	-1%	-2.2%
CCOc1cc(N2CCOCC2)c(OCC)cc1NC(=O)c1nc2nccc(C)n2n1	x	13%	x	5%	-1%	x	-5%	0.8%
CCOc1ccc(CCNC(=O)CN2C(=O)COc3ccc(S(=O)(=O)N4CCC(C)CC4)cc32)cc1	-17%	14%	-2%[46.1 µM]	x	-5%[46.1 µM]	x	x	-3.0%
COc1ccc(C2CCCCCN2C(=O)C2CCN(S(=O)(=O)c3cccc(C(C)=O)c3)CC2)cc1 (stereo not given)	-28%	x	-28%	x	u	12%	x	x
COc1cc2nc(C3CCC3)n(NC(=O)C(OC(C)=O)c3ccccc3)c(=O)c2cc1OC (stereo not given)	-20%	u	23%	-2%	-3%&-16%	-17%	-11%	2.3%
CC1(C)Cc2c(cnn2-c2cccc(F)c2)C(NC(=O)c2cc[n+]([O-])cc2)C1 (stereo not given)	-5%	x	7%[46.1 µM]	6%	0%[46.1 µM]	-18%	0%	x
COc1ccc(Cn2c(C(F)(F)F)ccc(C(N)=O)c2=O)cc1	-13%	x	7%	-3%	15%	5%	x	x
Oc1ccc(/C=N/N2CCCCC2)cc1O	23%	x	u	5%	20%[46.1 µM]	-8%	1%	x

Compound activity as filed in PubChem BioAssay.
